CDC25B-CDK2 inh – human CDC25B-CDK2/CyclinA binding inhibition; P30305+P24941; AID 1259370; z-score (concentration not given with the values); hit rate 0.72% among 94,000; HTRF CDC25B-CDK2/CyclinA binding, anti-His/anti-Flag; active compounds read high;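 further: score is relative to mean and SD of negative controls; strong numbers were not always called active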
TAR Tat displ – HIV-1 TAR-Tat binding disruption | HIV-1 TAR RNA, Tat peptide displacement FRET; active compounds read high | z-score (concentration not given with the values) | hit rate 0.6% among 100,000 | AID 1259389;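 further: score is relative to mean and SD of negative controls; some compounds called inactive have numbers as strong as hits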
* = called active by the depositor; . = no result given.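 How the source made its calls: active means z-score from 3 up in half or more of its runs; inactive means the rest.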 The order is random; any-hit rate near 0.94%.

Order of values – CDC25B-CDK2 inh, TAR Tat displ
Cc1ccc(CNc2c(-c3ccc4c(c3)OCC(=O)N4)c(=O)c2=O)cc1
→ ., -1.7
CCOC(=O)c1ccccc1NC(=O)CCN1C(=O)c2cccc([N+](=O)[O-])c2C1=O
→ -2, .
NC(Cc1ccc(F)cc1)C(=O)O (centres undefined)
→ ., 1.4
CCOc1ccc(NC2c3ncccc3C(=O)N2Cc2ccco2)cc1 (centres undefined)
→ ., -0.48
CCOC(=O)Cn1c(=O)oc2cc(S(=O)(=O)Nc3cc(C)cc(C)c3)ccc21
→ -1.7, .
CCCCc1cc(=O)oc2cc(OC(C)C(=O)OCC)c(Cl)cc12 (centres undefined)
→ 0.05, .
O=C(CCc1nnc2ccc(NCc3ccc(Cl)cc3)nn12)Nc1nccs1
→ ., 1.4
Cc1nnc(SCC(=O)N(C)C2CCCCC2)c2cc3sccc3n12
→ ., 0.27
CCOC(=O)c1noc2nc(C)nc(N3CCCC3)c12
→ ., 0.9
CCC(=O)N1CCc2cc(Br)cc(S(=O)(=O)CCC(=O)N3CCCC(C)C3)c21 (centres undefined)
→ -0.06, .
CC[C@H](/C=C/C(C)C1CCC2C3CCC4=CC(=O)CC[C@]4(C)C3CC[C@]12C)C(C)C (some centres undefined)
→ ., -0.31
O=C(Cn1ncc2ccc(Cl)cc21)NCCC1=CCCCC1
→ -1.6, -0.98
Cc1ccc(S(=O)(=O)NCCc2csc(-c3ccc(F)cc3)n2)cc1C
→ ., 0.91
Cc1ccc(C(=O)Cn2cnc3onc(C)c3c2=O)cc1
→ ., 1.8
O=C(CCc1nc(-c2ccco2)no1)Nc1ccncc1
→ 6.6, 1.2
CCOc1ccc(CCNc2ncnc3onc(C)c23)cc1OCC
→ ., -0.21
Cc1[nH]c2ccccc2c1C(=O)C(=O)N1CCCc2ccccc21
→ -2.7, .
O=C1c2oc3ccccc3c(=O)c2C(c2cccc(Cl)c2)N1c1ccccn1 (centres undefined)
→ 0.35, 0.63
CCOC(=O)C1CCCN(C(=O)CSc2nc(-c3ccco3)nc3cc(=O)[nH]n23)C1 (centres undefined)
→ ., 2.8
CSc1ccccc1Nc1ncnc(N)n1
→ -1.2, .
O=C(CCc1nnc2ccc(N3CCOCC3)nn12)NCc1ccco1
→ ., 0.34
c1ccc(-c2nnc3ccc(SCc4cccnc4)nn23)cc1
→ -1, .
COCCNC(=O)c1oc2ccc3c(c2c1C)C(=O)CC1(CCCC1)O3
→ -0.69, 1.6
O=C(Nc1ccccc1F)c1c(O)c2cccc3c2n(c1=O)CC3
→ ., -0.61
COc1ccccc1CNCCCSc1nnnn1C
→ -1.1, 1.1
CCN1CCN(C(=O)c2ccc(CN3CC(=O)N4CSCC4C3=O)cc2)CC1 (centres undefined)
→ ., 1.3
O=C1CCc2cc(S(=O)(=O)NCc3cccs3)cc3c2N1CCC3
→ ., 1.4
C=CCOc1ccc(C2CC(=O)Nc3c2cnn3-c2nc3ccccc3s2)cc1OC (centres undefined)
→ ., 1.4
O=C(CSc1ccc(-c2ccncc2)nn1)NC1CCCC1
→ ., 1.4
CCN(C(=O)Cn1ncc2c1-c1ccccc1OC2)c1ccc(F)cc1
→ -1.5, -1.1
O=C(CSc1nnc(C(=O)Nc2ccc(Cl)cc2)s1)NC1CCCC1
→ ., 0.79
COCc1cc(C)nc2sc3c(=O)n(-c4ccc(Br)cc4)nnc3c12
→ -1.8, 2.3
CCOc1ccc(NC(=S)NC(c2ccccc2)c2ccccc2)cc1
→ -1.5, .
CCCCN(C)S(=O)(=O)c1ccc2c(c1)NC(=O)CCS2
→ ., -1
CCOC(=O)c1c(C)n(-c2ccc(OC)cc2)c2ccc(O)cc12
→ 0.18, -0.68
CC(C)N1C=C(OC(=O)c2ccc(F)cc2)c2ccccc2S1(=O)=O
→ -1.9, 1.2
CC(C)c1nn2c(=O)cc(COC(=O)COc3ccccc3Cl)nc2s1
→ ., 0.97
CC1=C(c2ccc(C)cc2)S(=O)(=O)N(Cc2ccc(C(=O)NC(C)C)cc2)C1=O
→ ., 0.78
Cc1nc(N2CCCC2)c2c(C(=O)NCc3ccc4c(c3)OCO4)c(C)oc2n1
→ ., 0.12
Cc1ccc(NS(=O)(=O)c2ccc3c(c2)N(C)CCO3)c(C)c1
→ ., 1.3
CCOC(=O)c1nnn(-c2nonc2N)c1CN1CCCC(C)C1 (centres undefined)
→ 0.09, 0.16
CC(=O)O[C@@H]1CC2C(C)(CC[C@H](O)C2(C)C)C2CC[C@]3(C)C(=CC(=O)O[C@H]3c3ccoc3)C21C (some centres undefined)
→ ., 1.1
CCOc1nn(-c2ncc(C(F)(F)F)cc2Cl)c(=O)o1
→ 1, .
Cc1ccc(-c2n[nH]c(=O)c3ccccc23)cc1S(=O)(=O)NCC1CCCO1 (centres undefined)
→ -2.7, 0.1
Cc1ccc(Nc2nc3ccccc3c3nncn23)cc1F
→ -1.7, 1.6
O=c1oc2ccccc2cc1O
→ ., 0.17
CCOC(=O)NC1c2ccccc2Oc2ccc(OC)cc21 (centres undefined)
→ -1.3, -0.35
Cc1noc(/C=C/c2ccco2)c1S(=O)(=O)N1CCC(C(=O)NCCN2CCCCC2C)CC1 (centres undefined)
→ -1.9, 1.6
Cc1cc(CN2CCS(=O)(=O)CC2)c(C(F)(F)F)o1
→ -0.57, .
Cc1cc(-c2ccc(C)c(S(=O)(=O)N3CCN(c4cccc(C)c4C)CC3)c2)on1
→ ., -0.23
Cc1nc(NCc2ccc(Cl)cc2)c2c(C)c(C)sc2n1
→ -0.41, .
Cc1cc(NC(=O)Nc2cc(C)nn2-c2ccccc2)n(-c2ccccc2)n1
→ -0.29, 0.52
COc1ccccc1-c1noc(CSc2nnc(-c3ccncc3)n2-c2ccccc2)n1
→ -1.6, 0.85
CCN(Cc1ccccc1)C1CCCCC1NS(=O)(=O)c1ccccc1 (centres undefined)
→ 0, 0.83
CCOc1ccc(S(=O)(=O)Nc2ccc3c(c2)N(S(=O)(=O)CC)CCC3)cc1
→ ., -0.15
CCc1ccc(CNc2nc3nc(C)cc(=O)n3[nH]2)cc1
→ -1.8, 0.27
C=CCc1ccccc1OCC(O)CNC(C)C (centres undefined)
→ -0.43, 0.68
Cc1nc(-c2ccc(C)c(S(=O)(=O)NCc3ccc(Cl)cc3)c2)cs1
→ ., 0.73
CN1CCc2c(sc3c2C(=O)NC(c2ccc(-c4cccc(Br)c4)o2)N3)C1 (centres undefined)
→ -1.1, -5.3
Fc1ccc(-n2cc(-c3ccc4c(c3)OCO4)[nH]c2=S)cc1
→ -1.5, .

Next part.
Order of values – CDC25B-CDK2 inh, TAR Tat displ
O=C1c2ccccc2-c2onc3c(Br)cc(N4CCCCC4)c1c23
→ 1.7, -5.4
COc1ccc2c(O)c(N=O)ccc2c1
→ -1, .
Cc1nn(C)c2c1c(C(F)(F)F)cc(=O)n2Cc1cc(=O)n2ccccc2n1
→ ., 0.69
CC(C)CC(Nc1ncnc2ccccc12)C(=O)O (centres undefined)
→ -1.5, -1.2
CCCN(CCC)S(=O)(=O)c1ccc2c(c1)N(C(C)=O)CCO2
→ -1.9, 1.2
O=S(=O)(NCC(c1ccco1)N1CCOCC1)c1ccc(Cl)cc1 (centres undefined)
→ ., 2.1
O=C(Cn1cnc(S(=O)(=O)N2CCc3ccccc32)c1)Nc1cccc(F)c1
→ ., -0.3
CC1Cc2ccccc2N1C(=O)c1ccc(N2C(=O)CCS2(=O)=O)cc1 (centres undefined)
→ -1.7, 0.38
Cc1ccc(C)c(N2C(=O)N(Cc3ccccc3)C3CS(=O)(=O)CC32)c1 (centres undefined)
→ ., 0.57
CC1CC(C)(C)NC(=S)N1CCCC(=O)N1CCc2ccccc21 (centres undefined)
→ -0.96, .
CCCCNc1nc(Nc2ccc(C)c(Cl)c2)c2cnn(C)c2n1
→ ., 1.9
COc1ccc(OC)c(S(=O)(=O)NCc2cccn2Cc2ccc(Cl)cc2)c1
→ ., 1.9
C=CCn1c(=O)c2c(nc3n2CCCCN3c2ccc(OCC)cc2)n(C)c1=O
→ -2.4, 0.82
O=C(C1CCCN1S(=O)(=O)c1cccc2nsnc12)N1CCCCC1 (centres undefined)
→ 0.42, .
O=C(C1CCC(CNc2c(N3CCCCC3)c(=O)c2=O)CC1)N1CCC(N2CCCCC2)CC1 (centres undefined)
→ -0.77, 0.62
Cc1ccc(NC(=O)CSc2nn3c(=O)c(C)nnc3s2)c(C)c1
→ ., 1.5
COc1ccc(-c2[nH]ncc2C(=O)O)cc1
→ ., 0.44
COc1cccc(-c2noc(N3CCCC3)n2)c1OC
→ ., 1.2
Cc1ccc2nc3c(cc2c1)CCN3S(=O)(=O)c1ccc(F)c(C)c1
→ 2, -0.33
COCCNc1c(-c2ccc(C)c(C)c2)c(=O)c1=O
→ ., 1.4

Full records, looked up by structure.
CCN1CCN(C(=O)c2ccc(CN3CC(=O)N4CSCC4C3=O)cc2)CC1 (centres undefined) in the list: CDC25B-CDK2 inh = .; TAR Tat displ = 1.3
Cc1cc(NC(=O)Nc2cc(C)nn2-c2ccccc2)n(-c2ccccc2)n1 in the list: CDC25B-CDK2 inh = -0.29; TAR Tat displ = 0.52
CC(C)c1nn2c(=O)cc(COC(=O)COc3ccccc3Cl)nc2s1 in the list: CDC25B-CDK2 inh = .; TAR Tat displ = 0.97

(continued)
Order of values – CDC25B-CDK2 inh, TAR Tat displ
CCOc1cc(C2C(C(=O)OCC3CCCO3)=C(C)NC3=C2C(=O)CCC3)ccc1OC(C)=O (centres undefined)
→ -1.3, 0.57
Cc1ccc2c(c1)-c1cc(C)nn1C(c1ccc(O)c(O)c1)N2 (centres undefined)
→ 2.2, 0.17
O=C(CSc1nc2ccccc2nc1N1CCCC1)NCc1cccs1
→ -1.6, -1.9
CC1Cc2cc(S(=O)(=O)NCc3ccco3)ccc2N1C(=O)C1CC1 (centres undefined)
→ ., 0.31
CC(C)c1nnc2sc(-c3ccccc3Cl)nn12
→ -1.2, 0.48
COc1ccc(C2/C(=C(\O)c3ccc(Cl)cc3)C(=O)C(=O)N2CCCN(C)C)c(OC)c1 (centres undefined)
→ -0.84, 2
O=C(O)C1C2C=CC(C2)C1C(=O)Nc1ccccc1 (centres undefined)
→ -0.42, .
CCCCc1cc(C)c2[nH]cc(C(=O)O)c(=O)c2c1
→ -0.48, .
O=c1nc2c(-c3ccccc3)n[nH]n2c2cc(Cl)ccc12
→ -1.6, 3.8
Cc1c(CN(C)C(=O)CSc2nc3c(c(C(F)(F)F)n2)CCc2ccccc2-3)cnn1C
→ 0.78, 3.5
Cc1ccc2oc3c(c(=O)c2c1)C(c1ccc(O)cc1)N(Cc1ccc(F)cc1)C3=O (centres undefined)
→ -0.72, 2.5
CNC(=O)c1c(NC(=O)c2cccc(Oc3ccccc3)c2)sc2c1CCC2
→ ., -0.82
CCS(=O)(=O)N1CCC2(CC1)OC(=O)C(C)=C2C(=O)Nc1ccc2c(c1)OCCO2
→ ., 0.17
Oc1ccc(Nc2nc(-c3ccccc3)nc3ccccc23)cc1
→ -0.6, 0.34
Cc1cc(NC(=O)c2ccc3c(=O)n4c(nc3c2)CCCC4)no1
→ ., 1.8
COc1ccc(-n2c(Cc3cccn3C)nnc2SCC(=O)NC2CCCCC2)cc1
→ -0.69, .
O=S(=O)(c1cccc(Cl)c1)c1nnn2c1nc(NCc1ccc3c(c1)OCO3)c1sccc12
→ ., -0.93
O=C(Cc1c(O)c2ccccc2[nH]c1=O)NCc1ccncc1
→ -1.3, .
CCn1c(=O)c2c(nc3n2CCN3c2ccc(Cl)cc2)n(C)c1=O
→ ., 1.2
Clc1ccccc1-n1ncnc1-c1cccc(Br)c1
→ -1.6, 1.6

3 compounds already listed, arranged by SMILES length, smallest number first:
Order of values – CDC25B-CDK2 inh, TAR Tat displ
O=C(CSc1nc2ccccc2nc1N1CCCC1)NCc1cccs1
→ -1.6, -1.9
Cc1cc(NC(=O)c2ccc3c(=O)n4c(nc3c2)CCCC4)no1
→ ., 1.8
CNC(=O)c1c(NC(=O)c2cccc(Oc3ccccc3)c2)sc2c1CCC2
→ ., -0.82

(more compounds)
Order of values – CDC25B-CDK2 inh, TAR Tat displ
Cc1coc2c(C)c3oc(=O)c4ccccc4c3cc12
→ -0.86, .
CCN(CC)CCNc1nc2c(c(=O)[nH]c(=O)n2C)n1Cc1ccc(Cl)cc1
→ -1.2, 0.38
NC(=O)NC(NC(N)=O)C(=O)O
→ -2.2, .
Cn1cnc(S(=O)(=O)Nc2ccc3c(c2)OCCO3)c1
→ ., 1.7
CCOC(=O)N1CCN(S(=O)(=O)c2cc(-c3ccc(=O)[nH]n3)cc(C)c2C)CC1
→ ., 2
Cc1ccc2c(n1)sc1c(=O)n(Cc3ccco3)nnc12
→ -1.9, -0.53
CCOC(=O)C1=C(c2ccccc2)NC(SCC(=O)c2ccc(C)cc2)=C(C#N)C1c1ccco1 (centres undefined)
→ -1.5, -0.21
O=C(CC1(CC2=NS(=O)(=O)c3ccccc3N2)CCCC1)N1CCN(Cc2ccccc2)CC1
→ ., 1.2
CC(=O)Nc1nc2ccc(Br)cc2s1
→ -1.3, 0.92
CC(C)(CC(=O)NC1CCCCCCC1)CC1=NS(=O)(=O)c2ccccc2N1
→ -0.6, .
COc1ccc(N(C(C)=O)C2C=CS(=O)(=O)C2)cc1 (centres undefined)
→ -0.09, 1.2
NC(=O)N1CCCCC/C1=N\O
→ -1.7, .
CCOc1cc(-c2cc(N)n[nH]2)cc(OCC)c1OCC
→ -2.2, .
c1cc(-c2nnc3sc(-c4ccc5c(c4)OCCO5)nn23)ccn1
→ -0.05, 1.5
CCC(C)NC(=O)NCc1ccc2ncccc2c1 (centres undefined)
→ ., 0.81
COc1c(C(C)C)oc2cc3oc(=O)ccc3cc12
→ ., 1.2

From PubChem
